Screening results from PubChem BioAssay.
miR-21 FLuc = qHTS Assay for Modulators of miRNAs and/orActivators of miR-21; HeLa miR-21 FLuc reporter, luciferase, 48 h; Potency, µM (highest dose often 38.3 µM), inactives show at the top dose reporter change, positive = more light; 340,000 tested, under 10 active; active = well fitted rising curve with a large enough effect; inconclusive = small, poorly fitted or top-dose-only effect; inactive = no such curve, though single readings can be large or run the other way;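 note: % of control where 0% means no effect; miR-21 action dims this reporter so a rising signal means less miR-21 action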
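Compounds were titrated across several concentrations (up to approximately 40 uM) and incubated 48 hours with HeLa miR-21-FLuc reporter cells (miR-21 target sequence downstream of FLuc, endogenous miR-21). Readout was firefly luciferase luminescence after lytic detection reagent.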
GLA inh pH 4.5 = qHTS Assay for Inhibitors of Human alpha-Galactosidase at pH 4.5; Alpha-galactosidase A (Homo sapiens), P06280; purified enzyme, 4-MU-alpha-Gal fluorescence, pH 4.5; activity change, negative = inhibition, % at 105 µM; 230,000 tested, under 10 active; AID 1467, 2008; inconclusive = small, poorly fitted or top-dose-only inhibition, or a rising curve; inactive = flat fitted curve, though single readings scatter; no compound was filed as active;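 note: 0% = full activity with enzyme and -100% = basal without enzyme; dose as in the result columns while the protocol names 77 µM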
Target sequence (P06280 whole entry, looked up): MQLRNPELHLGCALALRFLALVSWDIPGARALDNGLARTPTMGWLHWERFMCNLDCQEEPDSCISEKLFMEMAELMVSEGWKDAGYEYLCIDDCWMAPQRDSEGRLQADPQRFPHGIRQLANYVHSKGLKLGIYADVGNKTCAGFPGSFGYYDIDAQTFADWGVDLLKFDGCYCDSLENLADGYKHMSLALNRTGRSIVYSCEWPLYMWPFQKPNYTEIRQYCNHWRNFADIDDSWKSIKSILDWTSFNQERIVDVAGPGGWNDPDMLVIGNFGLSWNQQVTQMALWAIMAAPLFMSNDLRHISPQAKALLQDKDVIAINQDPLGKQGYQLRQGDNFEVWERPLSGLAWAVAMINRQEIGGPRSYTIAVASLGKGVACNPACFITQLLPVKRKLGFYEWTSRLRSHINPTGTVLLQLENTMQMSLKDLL
Rango-impB inh = qHTS Assay for Inhibitors of Rango (Ran-regulated importin-beta cargo) - Importin beta complex formation | 340,000 compounds, 0.031% hits | Potency, µM (doses to about 92.2 µM), for the others: at the top dose inhibition of complex formation | Importin subunit beta-1 (Homo sapiens), Q14974 | Rango CFP/YFP FRET sensor + importin beta, 45 min; active = rising FRET ratio curve, often small or poorly fitted; inconclusive = mostly compound fluorescence or quenching in the first reads; inactive = flat curves in all reads;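 note: potency is the fitted concentration of half-maximal effect; 0% = DMSO wells and 100% = buffer wells lacking importin beta; nearly all actives have a fitted effect of over 15% in size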
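FRET biosensor (snurportin 1 IBB flanked by EYFP and cerulean), 50 nM, with compound 5 min, then 0.125 microM importin beta in PBS, 1 mM DTT, 0.02% Tween-20, 0.1% BSA. CFP/YFP ratio read after 45 min at room temperature; pre-read flags interference.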
Rango dissoc inh = qHTS Assay for Inhibitors of RanGTP induced Rango (Ran-regulated importin-beta cargo) - Importin beta complex dissociation; 340,000 compounds, 0.071% hits; AID 540253, 2011; Potency, µM (doses to about 46.1 µM), without a hit: at the top dose activity change, negative = inhibition; Snurportin-1 (Homo sapiens) + GTP-binding nuclear protein Ran (Homo sapiens) + Importin …; Biochemical FRET Rango-importin beta, RanGTP-induced dissociation; active means falling FRET ratio curve, often poorly fitted, with flat reads before Ran was added; inconclusive means other falling curves, or compound fluorescence or quenching; inactive means flat or rising ratio curve;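 note: potency is the fitted concentration of half-maximal effect; % of control where 0% means no effect; nearly all actives have a fitted effect of over 45% in size; -100% = wells without RanGTP and RCC1; the record marks most hits as doubtful in a second field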
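Rango/importin beta premix (0.1/0.25 uM final), PBS + 1 mM DTT + 0.02% Tween-20 + 0.1% BSA; cpd 5 min RT; FRET pre-read; + RanGTP-RCC1 (0.6 uM Ran, 2 mM GTP, 0.2 uM RCC1); 45 min RT; FRET post-read, ex 430, em 486/530 nm.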
An asterisk follows results filed as active; ? = inconclusive; · = no result given; & = joins results of further samples. An excerpt. The share of hits here may be higher or lower than overall.

miR-21 FLuc,GLA inh pH 4.5,Rango-impB inh,Rango dissoc inh,mol
-11%,-18,-1.5%,-8%,O=C(CSc1n[nH]c(=O)[nH]c1=O)c1ccc(Cl)cc1Cl
0%,·,0.8%,12%,O=C(CCN1C(=O)c2ccccc2C1=O)NCc1ccc(F)cc1
-10%,-3,-2.4%,-5%,NC(=S)NNC(=O)/C(=C/c1ccc(Br)cc1)NC(=O)c1ccccc1
-3%,3,-1.1%,-1%,COc1cc(NC(=O)c2nccnc2C(=O)O)cc(OC)c1
-1%,-2,-0.7%,0%,CCOC(=O)c1cn(-c2c(C)n(C)n(-c3ccccc3)c2=O)c2c(F)c(F)c(F)cc2c1=O
-37%,·,-0.2%,-7%,COc1ccc(NCc2ccsc2)cc1
3%,-3,0.4%,?,C=CCn1c(SCC(=O)NCCCC(=O)OCC)nc2scc(-c3ccco3)c2c1=O
10%,-4,?,-9%,CS(=O)(=O)N(CC(=O)Nc1ccc(S(=O)(=O)N2CCCC2)cc1)c1cccc(F)c1
0%,·,0.7%,10%,O=C(Nc1cccc(-c2cccc(F)c2)c1)C1CCN(C2CCC2)CC1
-15%,1,-0.3%,4%,CC(NS(=O)(=O)c1ccc(Cl)cc1)C(c1cccs1)N1CCN(C)CC1 (stereo not given)
-2%,6,3.2%,13%,Cc1ccc(C)c2[nH]c(=O)c(CCNC(=O)CC(C)C)cc12
·,·,-2.9%,19%,O=C(Nc1ccc(-c2ccc(N3CCCCC3)nn2)cc1)c1ccco1

More results
miR-21 FLuc,GLA inh pH 4.5,Rango-impB inh,Rango dissoc inh,mol
-12%,·,-2.5%,8%,Cc1cc(-c2ccccc2)nc2cc(C(=O)OC(C)C)nn12
22%,·,-3.0%,-3%,COc1ccc(C(=O)NC2CCCc3c2cnn3-c2ccccc2F)cc1OC (stereo not given)
-2%,0,-2.2%,24%,COC(=O)CCN(C)CCC(=O)OC
-16%,-3,-3.9%,-10%,O=c1cc(Nc2ccc3c(c2)OCCO3)[nH]c(=O)n1Cc1ccc(F)cc1
-3%,6,-2.3%,13%,Cc1c(-c2cc(C(=O)O)on2)cnn1C
-5%&-2%,·,?,0%,COc1ccc(C(CC(=O)Nc2ccccn2)N2Cc3ccccc3C2=O)cc1OC (stereo not given)
-1%,·,-0.7%,11%,CCn1nnnc1NCc1ccc(SC)cc1
0%,-6,-2.6%,-14%,CCCCn1ccnc1C(=O)c1cccc(S(=O)(=O)N2CC(C)CC(C)C2)c1 (stereo not given)
3%,·,-0.6%,10%,Cc1ccc(OC(=O)c2ccc(Cl)c([N+](=O)[O-])c2)cn1
0%,·,-1.1%,9%,O=C(CN1CCc2cc3c(cc2C1)OCCCO3)Nc1ccc(S(=O)(=O)N2CCCC2)cc1
1%,1,2.3%,10%,CCc1c(-c2ccccc2)nc(N)c(C#N)c1-c1cccs1
-2%,6,-0.7%,0%,Cc1nnsc1S(=O)(=O)Cc1ccccc1C(F)(F)F

Following part.
miR-21 FLuc,GLA inh pH 4.5,Rango-impB inh,Rango dissoc inh,mol
-1%,2,-4.6%,-7%,COc1ccc(NC(=O)NC(C(F)(F)F)C(F)(F)F)cc1
·,·,-2.2%,-4%,CCCCn1c(N)c(N(CCOC)C(=O)c2cc(S(=O)(=O)N3CCOCC3)ccc2Cl)c(=O)[nH]c1=O
1%,5,3.2%,-6%,COc1ccc(S(=O)(=O)NNC(N)=S)cc1
-1%,-5,-4.9%,-8%,O=C(c1ccco1)N1CCN(Cc2nc(Cc3ccccc3)no2)CC1
-6%,·,-1.9%,0%,O=C(Nc1nnc(SCCC2OCCO2)s1)C1CC(=O)N(c2ccccc2)C1 (stereo not given)
-2%,0,0.6%,2%,Cc1nn2cnc3sc4c(c3c2nc1=O)CCCC4
-3%,-1,-3.0%,-2%,Cc1csc(NC(=O)C2CCCN2C(=O)Oc2ccccc2)n1 (stereo not given)
-5%,-4,-2.1%,2%,Cc1nc(-c2ccc(S(=O)(=O)Nc3ccc(Br)cc3Cl)s2)cs1
0%,5,-2.7%,-8%,Cc1ccc(C2SCC(C(=O)O)N2C(=O)c2ccc(F)cc2)cc1 (stereo not given)
-24%,5,5.8%,4%,O=C(COc1ccccc1)Nc1nc(-c2cccs2)cs1
·,·,?,29%,CCOC(=O)c1c[nH]c2ccc([N+](=O)[O-])cc12
·,·,4.5%,2%,COc1ccc2oc(C(=O)OCC(=O)Nc3cccc(S(=O)(=O)N4CCOCC4)c3)c(C)c2c1

Further structures follow:
miR-21 FLuc,GLA inh pH 4.5,Rango-impB inh,Rango dissoc inh,mol
·,·,23µM*,17%,CCOc1cc(/C=C2\SC(=S)N(NS(=O)(=O)c3ccc(C)cc3)C2=O)ccc1O
-13%,0,?,-12%,Cc1ccc(C(=O)N/N=C/c2sc(=O)n(Cc3cccc(C(=O)O)c3)c2Cl)cc1
-48%,-3,-0.2%,0%,COc1ccccc1/C=C/C=N/NC(=O)c1ccco1
-12%,4,4.1%,-7%,OC(COc1ccc2ccccc2c1)Cn1cncn1 (stereo not given)
-13%,0,1.3%,6%,Cc1ccccc1C(=O)Nc1c2c(nc3ccccc13)CCCC2
-1%,-17,1.1%,20%,CCSC1=NCCN1C(=O)c1c(-c2ccccc2Cl)noc1C
-4%,-13,-0.5%,3%,CC1CCN(c2nc(/C=C/c3ccccc3)nc3ccccc23)CC1
1%,5&6,4.2%,1%,CCOc1ccc(NC(C)=O)cc1
·,·,0.5%,-19%,CCN(C[C@H]1N[C@@](C)(C(=O)OC)[C@H]2C(=O)N(C)C(=O)[C@@H]12)S(=O)(=O)c1ccc(-c2ccccc2)cc1
?,-7,0.9%,17%,O=C(Nc1ccccc1Cc1ccccc1)c1ccccc1NS(=O)(=O)c1ccc(Cl)s1
0%,4,-0.7%,9%,O=C(Nc1ccccc1)C1CCN(C(=O)c2ccccc2)CC1
8%,5,0.2%,-16%,Cc1onc(-c2ccccc2Cl)c1C(=O)Nc1ccc(-c2nnc3n2CCCCC3)cc1

Later entries.
miR-21 FLuc,GLA inh pH 4.5,Rango-impB inh,Rango dissoc inh,mol
-20%,-11,-5.7%,-1%,Cc1nnc(SCCCn2c(N3CCCCC3)nc3c2c(=O)[nH]c(=O)n3C)s1
-1%,0,4.6%,16%,CCOc1ccc(NC(=O)c2c(OC)cccc2OC)cc1
-1%,·,-0.2%,18%,O=C(NC1CCN(C(=O)NCc2ccccc2)CC1)c1cccc(F)c1
-2%,7,0.2%,24%,O=C(Oc1coc(CSc2ncccn2)cc1=O)c1ccc(Br)o1
0%,4,0.5%,0%,CCCCS(=O)(=O)Nc1ccc2ncn(C)c(=O)c2c1
-6%,-3,1.1%,-4%,CC(C)(C)NC(=O)CSc1nc(O)cc(=O)n1-c1ccccc1
1%,7,4.0%,0%,NC(=O)CC(NC(=O)Cc1ccc(Br)cc1)c1ccc(NCCc2ccc(Cl)cc2)c([N+](=O)[O-])c1 (stereo not given)
·,·,0.0%,4%,Cc1ccccc1NC(=O)COC(=O)c1cc(S(=O)(=O)N2CCOCC2)ccc1C
-4%,-26,2.4%,-13%,CCN(CC)CCN(Cc1cc2cc(C)ccc2[nH]c1=O)C(=S)Nc1ccccc1
-68%,·,-2.1%,0%,Cn1c(COc2ccc(F)cc2)nc2ccccc21
-2%,-3,10%,-9%,CN(NS(=O)(=O)c1ccc(Cl)cc1)c1cnn(C)c(=O)c1Cl
-3%,-1,-4.8%,0%,Nc1nc(Br)c2c(F)cccc2c1-c1ccccc1

Continuation:
miR-21 FLuc,GLA inh pH 4.5,Rango-impB inh,Rango dissoc inh,mol
0%,3,0.6%,2%,O=C1CC(C(=O)N(c2ccccc2)C(C(=O)NC2CCCC2)c2ccncc2)CS1 (stereo not given)
-4%,1,-1.4%,-2%,O=C(NCCCCNC(=O)C1CCCC1)C1CCCC1
-7%,0,-1.3%,-14%,FC(F)(F)c1nc2ccccc2nc1N/N=C/c1ccc(Cl)cc1
12%,·,-0.9%,-1%,CCc1ccc(N(CC(=O)NCc2cccnc2)S(=O)(=O)c2ccccc2)cc1
-51%,-2,-0.7%,3%,O=C1C(C=NCc2ccccn2)=C(O)c2ccccc21
·,·,-3.5%,-7%,C[C@H](CO)N1C[C@H](C)[C@@H](CN(C)S(=O)(=O)c2cccs2)Oc2ccc(NS(=O)(=O)c3ccccc3)cc2C1=O
-1%,12,-1.3%,1%,COc1cc(C)c(C(N)=O)c(OC)n1
-31%,-3,1.4%,-17%,COC(=O)c1ccccc1NC(=O)Nc1ccc2c(c1)OCO2
18%,-2,-1.2%,-1%,COc1cccc(CSc2nc3ccccc3cc2C=O)c1
3%,·,4.0%,?,CCN(CC)S(=O)(=O)c1ccc(N2CCCC2)c(NC(=O)Cc2cc(OC)c(OC)c(OC)c2)c1
-2%,-2,-0.5%,-10%,C=CCSC1=C(C#N)C(c2ccccc2C)CC(=O)N1 (stereo not given)
-7%,-3,0.2%,4%,CC1CCN(C(=O)CCNC(=O)Cn2cnc3sc4c(c3c2=O)CCCC4)CC1

Structures listed so far that contain two or more sulfur atoms, in the order listed:
miR-21 FLuc,GLA inh pH 4.5,Rango-impB inh,Rango dissoc inh,mol
3%,-3,0.4%,?,C=CCn1c(SCC(=O)NCCCC(=O)OCC)nc2scc(-c3ccco3)c2c1=O
10%,-4,?,-9%,CS(=O)(=O)N(CC(=O)Nc1ccc(S(=O)(=O)N2CCCC2)cc1)c1cccc(F)c1
-15%,1,-0.3%,4%,CC(NS(=O)(=O)c1ccc(Cl)cc1)C(c1cccs1)N1CCN(C)CC1 (stereo not given)
-2%,6,-0.7%,0%,Cc1nnsc1S(=O)(=O)Cc1ccccc1C(F)(F)F
1%,5,3.2%,-6%,COc1ccc(S(=O)(=O)NNC(N)=S)cc1
-6%,·,-1.9%,0%,O=C(Nc1nnc(SCCC2OCCO2)s1)C1CC(=O)N(c2ccccc2)C1 (stereo not given)
-5%,-4,-2.1%,2%,Cc1nc(-c2ccc(S(=O)(=O)Nc3ccc(Br)cc3Cl)s2)cs1
-24%,5,5.8%,4%,O=C(COc1ccccc1)Nc1nc(-c2cccs2)cs1
·,·,23µM*,17%,CCOc1cc(/C=C2\SC(=S)N(NS(=O)(=O)c3ccc(C)cc3)C2=O)ccc1O
?,-7,0.9%,17%,O=C(Nc1ccccc1Cc1ccccc1)c1ccccc1NS(=O)(=O)c1ccc(Cl)s1
-20%,-11,-5.7%,-1%,Cc1nnc(SCCCn2c(N3CCCCC3)nc3c2c(=O)[nH]c(=O)n3C)s1
·,·,-3.5%,-7%,C[C@H](CO)N1C[C@H](C)[C@@H](CN(C)S(=O)(=O)c2cccs2)Oc2ccc(NS(=O)(=O)c3ccccc3)cc2C1=O
